Bioassay records (PubChem)
TCR-CD3 inh = blocks the human TCR-CD3 interaction. TAMRA-labeled TCR probe fluorescence, biochemical. hit rate 0.37% among 360,000. inhibition, % at 9.4 µM. AID 651800; in the data active means inhibition above about 19%;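 further: recombinant mutant TCR 2C K166C tagged with TAMRA read by polarization; 0% = receptor in buffer alone and 100% = receptor with positive control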
PRMT1 FP inh = inhibitors of human PRMT1. Q99873. recombinant PRMT1, activity-based probe fluorescence polarization. inhibition, % at 2.79 µM. hit rate 1.3% among 370,000;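 active means inhibition above about 21% made by adding two undisclosed values, limit read from the data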
rCAG RNA binder = binds r(CAG) RNA repeats; r(CAG) RNA repeat, TO-PRO-1 dye displacement fluorescence; inhibition, % at 3 µM; hit rate 1.3% among 370,000;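 active means inhibition above the plate cutoff, the mean of all test compounds on that plate plus 3 SD, cut at about 35% in these data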;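 further: 0% = DMSO alone and 100% = 100 µM mitoxantrone as full dye displacement; higher means more dye released from RNA so lower well fluorescence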
Rev-erbA mod = modulates human Rev-erb alpha binding to DNA. P20393. Rev-erbα–FITC-DNA binding, fluorescence polarization, 90 min. activity, % at 10 µM. hit rate 0.79% among 370,000;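 active means activity above about 14%, limit read from the data; passing the limit was not always enough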;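 further: 0% = DMSO wells with 35 nM protein and 100% = DMSO wells with 750 nM protein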
TDP2 inh = blocks human TDP2 phosphodiesterase activity | inhibition, % at 12.8 µM | O95551 | AID 720702 | recombinant TDP2, T5PNP hydrolysis, p-nitrophenol absorbance 415 nm | hit rate 0.34% among 370,000;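 active means inhibition above the mean of all tested compounds plus 3 SD, set per campaign, cut at about 25% in these data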;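 further: 0% = DMSO with enzyme and 100% = buffer with substrate but no TDP2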
Target sequence (O95551 whole entry, looked up): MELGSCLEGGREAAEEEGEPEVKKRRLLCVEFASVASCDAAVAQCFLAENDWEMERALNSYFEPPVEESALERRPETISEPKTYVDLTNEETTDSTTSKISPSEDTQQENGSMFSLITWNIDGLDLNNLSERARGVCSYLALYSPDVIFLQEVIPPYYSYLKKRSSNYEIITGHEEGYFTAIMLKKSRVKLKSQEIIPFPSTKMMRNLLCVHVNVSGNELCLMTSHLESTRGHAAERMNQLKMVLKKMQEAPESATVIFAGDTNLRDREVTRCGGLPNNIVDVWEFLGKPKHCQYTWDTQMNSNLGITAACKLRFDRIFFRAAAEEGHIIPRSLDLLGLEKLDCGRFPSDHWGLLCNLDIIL
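System: recombinant human TDP2 / Amount: 120 nM TDP2 per well / Also added: 5 mM T5PNP chromogenic substrate / Doses: 12.8 µM single point, 1% DMSO / Incubation: 2 h at 37 °C / Detection: p-Nitrophenol epi absorbance / Evaluation: % inhibition relative to enzyme-containing and enzyme-free wells / Repeats: singlicate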
LEDGF integ inh = blocks HIV-1 LEDGF/p75-dependent DNA integration; hit rate 0.64% among 370,000; AID 743269; inhibition, % at 3.7 µM; TR-FRET IN-LEDGF/p75 DNA integration, Eu/Cy5;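 active means inhibition above the screen-wide mean plus 3 SD, cut at about 13% in these data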;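 further: signal is the Cy5 over europium emission ratio at 671 and 618 nm; 0% = plate median of compound wells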
SIAE primary = inhibitors of human sialic acid acetylesterase SIAE; Q9HAT2; SIAE FP-Rh probe binding, fluorescence polarization; inhibition, % at 9.66 µM; hit rate 0.69% among 370,000; AID 1053197;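 active means inhibition above a cutoff: mean of compounds within the control limits plus 3 SD of those, cut at about 17% in these data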;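 further: 0% = plate median of compound wells and 100% = probe without SIAE protein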
mABHD4 FP = ABHD4 (mouse) inhibition, primary FP screen; hit rate 0.54% among 370,000; Q8VD66; AID 720543; inhibition, % at 8.92 µM; purified mABHD4, FP-Rh probe fluorescence polarization;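 active means inhibition exceeding the mean over every tested compound plus 3 SD, cut at about 30% in these data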;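 further: 0% = plate median of compound wells and 100% = S159A mutant with DMSO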
Target sequence (Q8VD66 whole entry, looked up): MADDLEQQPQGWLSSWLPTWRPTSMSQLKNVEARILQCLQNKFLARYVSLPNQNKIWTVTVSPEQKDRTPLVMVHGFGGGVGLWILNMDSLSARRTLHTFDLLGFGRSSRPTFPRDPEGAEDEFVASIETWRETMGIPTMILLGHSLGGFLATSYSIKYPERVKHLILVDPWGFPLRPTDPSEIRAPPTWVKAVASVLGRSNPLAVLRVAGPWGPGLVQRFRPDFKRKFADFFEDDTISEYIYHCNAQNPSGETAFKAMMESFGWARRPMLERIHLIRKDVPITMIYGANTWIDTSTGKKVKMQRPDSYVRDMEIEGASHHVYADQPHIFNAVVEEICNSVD
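Test system: mABHD4 protein; Read-out basis: % inhibition; Incubation: 45 min + 60 min at 25 °C; Repeats: single replicate; Technique: fluorescence polarization with parallel and perpendicular emission, 525/598 nm; Compound: 8.92 µM, single dose; Benchmarks: full inhibition S159A mutant plus DMSO, zero as sample-well median.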
PG9 Ab binder = small molecules binding HIV-1 gp120 antibody PG9; TR-FRET gp120-PG9 antibody binding; inhibition, % at 6.7 µM; hit rate 0.43% among 360,000; in the data active means inhibition above about 8.5%
An asterisk follows results filed as active.

Every second line gives: TCR-CD3 inh	PRMT1 FP inh	rCAG RNA binder	Rev-erbA mod	TDP2 inh	LEDGF integ inh	SIAE primary	mABHD4 FP	PG9 Ab binder
- CCCCc1c(O)n2c(nc3ccccc32)[nH]c1=O
 : 7.1	-1.0	-0.6	2.1	3.3	1.3	3.0	3.2	-0.4
- CC(C)(C)OC(=O)[C@H](Cc1ccccc1)NC(=O)c1nc[nH]c1C(=O)N1CCNCC1
 : 1.3	0.6	-1.2	2.6	0.2	-0.6	7.2	12.0	-0.3
- COC(=O)c1ccc(C2CC(=O)NC3=C2C(=O)CCC3)cc1 (centres undefined)
 : 4.7	-1.0	-0.3	-2.8	-4.0	-0.8	-4.2	1.2	0.8
- CC1(C)CC2C1CCC1(O)CC2(C)CCC1N(O)c1ccc(C(=O)NCCO)cn1 (centres undefined)
 : -1.0	28.2*	6.4	-4.4	-3.4	-2.8	8.4	12.6	-0.6
- CNC(=O)NC(=O)C(OC(=O)Cc1cccc(C(F)(F)F)c1)c1ccccc1 (centres undefined)
 : -0.6	3.2	-4.7	2.5	2.4	-0.5	1.3	4.2	0.1
- Cc1c(Cl)cccc1N1C(=O)CC(N(O)c2ccccc2)C1=O (centres undefined)
 : 0.8	1.4	2.4	9.2	-2.4	-1.3	3.5	13.5	0.0
- CCN(Cc1nc2ccccc2c(=O)[nH]1)C(=O)c1cc2c(s1)CCCCC2
 : -4.3	-4.3	1.5	-0.2	5.1	3.1	3.9	-0.5	-1.1
- Cc1cccc(C(=O)NCC(=O)Nc2ccncc2)c1
 : 4.2	2.4	0.9	-3.5	7.3	-0.1	1.4	2.6	0.9
- CC1=C(C(=O)Nc2cccnc2)C(c2cccnc2)n2ncnc2N1 (centres undefined)
 : -2.3	4.0	3.5	-2.4	-5.5	2.3	1.8	-3.5	2.0
- CC1(OC(=O)c2cccs2)C(=O)C=C2C=C(C3CC3)OC=C2C1=O (centres undefined)
 : 16.6	11.5	19.5	1.3	-2.5	4.3	8.0	21.6	0.0
- Cc1cc(C)c(S(=O)(=O)Nc2cccnc2)c(C)c1
 : -3.2	2.4	2.0	-1.3	-17.9	5.0	3.2	-2.5	-2.0
- CC1CCN(C(=O)CSc2n[nH]c(-c3cccs3)n2)CC1
 : 4.2	0.6	-2.2	-2.5	1.8	3.0	1.6	-1.7	-1.0
- NNc1nc2sc3c(c2c(=O)n1-c1ccccc1)CCCC3
 : 4.1	3.2	6.9	-4.6	11.7	1.4	3.5	7.6	-1.5
- O=C(CCN1C(=O)S/C(=C/c2ccccc2)C1=O)Nc1ccc(C(=O)O)c(O)c1
 : -7.3	5.1	63.2*	8.2	8.1	0.8	-3.6	-22.5	-0.8
- CCn1c(SCC(=O)OC)nnc1C1CCCCC1
 : -2.3	2.1	-1.9	1.3	-6.5	2.4	3.3	-2.2	1.2
- CSCC[C@@H](C(=O)O)N1Cc2ccccc2C1=O
 : 2.3	-1.7	1.2	3.6	6.0	7.7	0.9	2.9	0.1
- O=C1CCN(Cc2nc(-c3ccc(Cl)cc3)no2)CCN1
 : 3.6	-1.8	-2.6	-0.1	11.6	7.4	5.7	0.0	-1.0
- CN(Cc1ccccc1)C(=O)CCS(=O)(=O)c1cc2c(cc1Cl)NC(=O)CO2
 : 4.1	-3.9	3.7	6.5	2.5	-1.9	5.2	7.4	-0.6
- CC(=O)c1cc(CN2CCC(n3nccc3NC(=O)c3ccccc3)CC2)cs1
 : -2.9	1.1	-2.1	-3.9	-5.7	-7.2	-0.1	4.5	1.1
- C[C@H](NC(=O)c1nc[nH]c1C(=O)N1CCN(c2ccccc2)CC1)C(=O)OC(C)(C)C
 : 0.6	4.4	-4.8	-1.6	-6.3	1.9	15.6	15.4	-5.3

Profiles from above. Screens in order: TCR-CD3 inh	PRMT1 FP inh	rCAG RNA binder	Rev-erbA mod	TDP2 inh	LEDGF integ inh	SIAE primary	mABHD4 FP	PG9 Ab binder
C[C@H](NC(=O)c1nc[nH]c1C(=O)N1CCN(c2ccccc2)CC1)C(=O)OC(C)(C)C in the list: 0.6	4.4	-4.8	-1.6	-6.3	1.9	15.6	15.4	-5.3
CCn1c(SCC(=O)OC)nnc1C1CCCCC1 in the list: -2.3	2.1	-1.9	1.3	-6.5	2.4	3.3	-2.2	1.2

(more compounds)
Every second line gives: TCR-CD3 inh	PRMT1 FP inh	rCAG RNA binder	Rev-erbA mod	TDP2 inh	LEDGF integ inh	SIAE primary	mABHD4 FP	PG9 Ab binder
- C=CCNC(=O)c1onc(CCl)c1C(=O)OC
 : 0.2	2.0	1.4	5.7	-5.3	-4.5	1.9	6.5	-0.5
- COc1ccc(CNC(=O)N2CCN(c3ccc(F)cc3)CC2)cc1
 : 25.4*	2.6	-5.7	0.6	2.2	-3.8	-3.7	-2.6	-1.6
- Cc1nn(-c2ccc(Cl)cc2)c2[nH]c(=O)c(CNCc3ccc4c(c3)OCO4)cc12
 : -1.8	2.1	10.4	-4.0	2.1	1.0	0.8	-6.7	-1.0
- O=C(COC(=O)c1cccnc1Cl)Nc1cc(S(=O)(=O)N2CCCCC2)ccc1Cl
 : 0.7	1.7	1.1	1.6	-7.5	-6.2	-5.5	-0.5	0.4
- CC(=O)CCC(=O)OCC(=O)c1ccc(C(F)(F)F)cc1
 : 0.4	-7.9	1.1	0.6	8.1	6.0	1.4	2.8	-0.5
- CC(Sc1ccc(Cl)cc1)C(=O)NNC(=O)c1ccccc1O (centres undefined)
 : 29.9*	3.8	2.5	4.8	5.8	-13.4	15.8	9.4	-1.5
- Cc1sc(NC(=S)NC(=O)c2ccc(C(C)(C)C)cc2)c(C#N)c1C
 : -5.4	12.7	6.8	-1.7	11.0	-1.8	-3.8	7.1	1.0
- Nn1c(Nc2ccccc2)nc2sc3c(c2c1=O)CCC3
 : -3.0	5.3	14.4	-4.8	-11.0	-3.1	1.0	0.4	0.9
- O=C(COC(=O)/C=C/c1ccccc1[N+](=O)[O-])NC(=O)NC1CCCC1
 : 4.9	0.9	-5.6	-1.8	19.1	-0.6	0.2	4.8	-0.7
- C/C(CC(=O)Nc1cccnc1)=N/NC(=O)COc1ccc(Cl)cc1Br
 : 3.4	-0.1	-1.1	5.8	-3.2	1.9	1.3	-0.6	-1.5
- O=C(CN1C(=O)S/C(=C\c2ccc(Cl)cc2)C1=O)NNC(=O)c1ccccc1O
 : 32.6*	7.9	13.5	-6.0	-3.9	-9.5	9.9	-14.6	0.9
- Cc1cc(C)cc(NC(=O)CN2CCN(c3ccccc3)CC2)c1
 : 4.9	-0.7	-3.5	-3.7	7.4	2.5	3.4	-0.8	-1.9
- CC(C)NC(=O)CC(=O)NN=C1CCCCC1
 : -4.6	-4.3	-0.3	-4.2	1.2	5.6	10.4	-2.4	0.1
- COc1cccc(/C=C2/Sc3ccc(C(=O)NCCN4CCCC4)cc3NC2=O)c1
 : -2.8	-2.3	20.1	13.0	-15.5	2.2	-22.4	-15.4	-8.8
- Cc1nnc2ccc(-c3cccc(NS(=O)(=O)c4ccccc4Cl)c3)nn12
 : 1.1	1.9	7.2	-3.5	5.7	-2.5	-1.2	-0.6	1.3
- O=C(CSc1nc(O)cc(=O)[nH]1)N1c2ccccc2CCc2ccccc21
 : -0.3	17.6	30.8	4.8	-6.2	0.8	-4.7	17.9	-0.1
- Cc1nn(-c2ccccc2)c(C)c1C(=O)NCc1ccccc1F
 : 11.1	-4.3	2.2	-0.7	5.1	-0.8	2.9	-7.7	-1.1
- C1=C(c2ccccc2)Nc2ccccc2N=C1c1ccccc1
 : 2.3	-2.7	1.0	-2.2	4.2	-1.2	6.7	-10.8	-1.0
- O=C1CC(c2cccc(Br)c2)C2=C(CCCC2=O)N1 (centres undefined)
 : 1.5	-3.6	-4.2	1.2	10.2	2.8	-1.2	3.4	1.0
- O=C(C1CC(=O)N(c2ccc(Cl)cc2)C1)N1CCCCCC1 (centres undefined)
 : -4.3	0.1	2.2	2.1	-0.9	0.8	4.0	0.9	0.4

Carrying on.
mol	TCR-CD3 inh	PRMT1 FP inh	rCAG RNA binder	Rev-erbA mod	TDP2 inh	LEDGF integ inh	SIAE primary	mABHD4 FP	PG9 Ab binder
Cc1ccccc1N/N=C/c1ccc(N2CCOCC2)cc1	-2.0	2.5	6.2	1.9	11.8	-3.3	3.4	3.6	-0.2
COc1ccc(-c2cn3cc(Br)cnc3n2)cc1	-0.1	-6.1	-1.6	0.8	-2.7	2.6	-0.9	-5.7	0.0
O=C(NCCc1nc2ccccc2[nH]1)/C(=C/c1ccc(F)cc1)NC(=O)c1ccco1	-1.2	1.4	-4.5	0.8	-4.5	-4.0	-0.6	-3.3	-2.2
O=C1C2C3C=CC(C3)C2C(=O)N1CCN1CCN(Cc2ccc([N+](=O)[O-])cc2)CC1 (centres undefined)	-0.7	1.7	-8.4	-3.6	9.6	-3.2	-0.1	-8.9	-0.6
COc1cnc(-c2ccccn2)nc1Oc1cccc(C(F)(F)F)c1	-3.2	4.7	-4.0	1.1	-1.6	1.8	4.7	5.9	0.2
CCOC(=O)CN1C(=O)N(c2ccccc2OC)S(=O)(=O)c2ccccc21	8.5	-0.3	-3.7	2.1	11.9	1.4	-3.6	-5.6	-1.3
O=c1cc(-c2c(O)c3ccccc3n(Cc3ccccc3)c2=O)[nH][nH]1	8.8	12.8	46.5*	6.0	-7.7	-3.0	3.9	16.3	-0.5
CCCc1nc(SCC(=O)N2CCCC2)c2ccccc2n1	-2.5	-1.2	-6.8	1.4	2.8	3.6	4.0	5.2	-2.8
COc1ccc(N2C(=O)C3CCCN3C2=S)cc1 (centres undefined)	20.1*	6.5	2.0	8.0	14.7	0.6	-3.4	0.3	0.5
COc1ccc(C2SCC(C(=O)O)N2C(C)=O)cc1 (centres undefined)	1.8	-1.7	2.5	2.6	13.6	-0.3	5.9	-6.1	-1.0
FC(F)(F)c1cnc(Oc2cccc3ccccc23)c(Cl)c1	-0.3	8.8	4.8	0.1	-5.7	-2.2	-6.8	-0.8	3.2
Cc1cc(C)c(S(=O)(=O)Nc2cccc(-n3cnnn3)c2)c(C)c1	7.2	-2.3	7.5	7.5	-5.5	-2.6	-3.5	-5.3	0.5
CC(C)(C)NC(=O)c1ccc(Sc2ccccc2)c([N+](=O)[O-])c1	-3.6	4.6	-0.9	-0.2	-13.1	-1.2	-3.1	-12.9	2.0
COc1ccc(OC)c(Nc2nc(C)nc3c2oc2ccccc23)c1	-0.7	6.3	7.5	0.5	4.1	-2.2	-1.6	7.0	1.8

4 compounds from above, reduced to rCAG RNA binder:
| Compound | rCAG RNA binder |
| --- | --- |
| COc1ccc(C2SCC(C(=O)O)N2C(C)=O)cc1 (centres undefined) | 2.5 |
| COC(=O)c1ccc(C2CC(=O)NC3=C2C(=O)CCC3)cc1 (centres undefined) | -0.3 |
| CCCCc1c(O)n2c(nc3ccccc32)[nH]c1=O | -0.6 |
| Cc1cc(C)c(S(=O)(=O)Nc2cccc(-n3cnnn3)c2)c(C)c1 | 7.5 |

An excerpt. The share of hits here may be higher or lower than overall.
